2A StopGo: High Throughput Screening for Foot and Mouth Disease Virus Antivirals; human cells with a luciferase reporter of 2A StopGo recoding; control for the full effect not named in the record; hit rate 1.2% among 410,000; Potency, µM (titrated, usually from 57.9 µM), for the others: at the highest dose signal change, negative = less light; active = well fitted falling curve with a large enough effect; inconclusive = small, poorly fitted or top-dose-only effect; inactive = no such curve, though single readings can be large or run the other way; tested in HEK293T cells; also: nearly all actives have a fitted effect of over 45% in size; luciferase light after 4 h
Starred values were filed as active, the others as inactive; ? = inconclusive; & = joins results of further samples; [ ] = dose if it differs, or a comment. % is scaled to controls: 0 for no effect and ±100 for the full control effect; potency is read from the fitted curve at half-maximal effect.

| Structure | 2A StopGo |
| --- | --- |
| O=C([C@@H]1C[C@@H](Sc2nc3ccccc3[nH]2)CN1CC1CCCCC1)N1CCOCC1 | 12% |
| O=C(NCc1nnc2n1CCN(Cc1cc(F)cc(F)c1)CC2)c1cccc(F)c1 | 2% |
| CO[C@H]1[C@H](NC(=O)c2ccco2)c2ccccc2C12CCN(Cc1cnn(-c3ccccc3)c1)CC2 | 17% |
| COc1cc(=O)n2c(c1C(=O)NCc1ccco1)CCN(Cc1cccc(C)n1)CC2 | -3% |
| COc1cc(=O)n2c(c1C(=O)N(C)Cc1nonc1C)CCN(C(=O)c1cccc(C)c1C)CC2 | 13% |
| CC(C)C[C@H](NC(=O)[C@H](Cc1ccccc1)NC(=O)CNC(=O)CNC(=O)[C@@H](N)Cc1ccc(O)cc1)C(=O)N[C@@H](CCCN=C(N)N)C(=O)N[C@@H](CCCN=C(N)N)C(=O)N[C@@H](CCC(N)=O)C(=O)N[C@@H](Cc1ccccc1)C(=O)N[C@@H](CCCCN)C(=O)N[C@H](C(=O)N[C@H](C(=O)N[C@H](C(=O)O)[C@@H](C)O)C(C)C)C(C)C | -1%[6.7 µM] |
| Cc1cnc(C)c(-c2cccc3c2OC(CNC(=O)/C=C/c2ccc(F)c(F)c2)C3)n1 (stereo not drawn) | -16% |
| Cc1ncoc1C(=O)N1CCOc2ccc(CN3CCC(Oc4cccnc4)CC3)cc2C1 | -1% |
| COc1ccc(NC(=O)c2cc(OCCCN(C)C)nn2Cc2ccccc2)cc1 | -8% |
| COc1ccc2ccccc2c1CN1CCOc2ccc(CN3CCN(CCO)CC3)cc2C1 | -5% |
| CCC1CN(CCNC(=O)c2cccc3nccnc23)Cc2cc(OC)ccc2O1 (stereo not drawn) | -11% |
| CC(=O)c1ccc(C(=O)N2CCc3c(cnc(C)c3CNC(=O)c3ccc4c(c3)OCO4)C2)s1 | -7% |
| COc1ccc(CN2CCOc3ccc(CN4CCC(Oc5cccnc5)CC4)cc3C2)cc1C | -29% |
| CC(C)Cc1nc2cc(NS(=O)(=O)N(C)C)cc(C(=O)N3CCc4ccccc4C3)c2n1C | 12% |
| CCC1CN(CC(=O)NCc2cc(C)n(C)n2)Cc2cc(OC)ccc2O1 (stereo not drawn) | 12% |
| COc1cc(C)c(CN2CCOc3ccc(C(O)c4cccnc4)cc3C2)cc1C (stereo not drawn) | -19% |
| COc1cccc(CC(=O)NCC2Cc3cc(Cl)cc(-c4ncccn4)c3O2)c1 (stereo not drawn) | -11% |
| O=C(N[C@@H]1c2ccccc2C2(CCN(C(=O)c3cc4ccccc4oc3=O)CC2)[C@H]1O)c1cccnc1 | -4% |
| Cc1oc(-c2ccccc2NC(=O)C2CCC2)nc1CNC(=O)c1ccccn1 | -6% |
| O=C(O)c1ccc(-c2nn3c(=O)cc(N4CCNCC4)nc3s2)cc1 | -15% |

(cont.)
| Structure | 2A StopGo |
| --- | --- |
| Cc1[nH]c(/C=C2/C(=O)Nc3ccc(S(=O)(=O)Cc4c(Cl)cccc4Cl)cc32)c(C)c1C(=O)N1CCCC1CN1CCCC1 (stereo not drawn) | -29% |
| O=C(NCCN1CCOCC1)c1cnn(-c2ncc3c(n2)-c2ccccc2CC3)c1C1CC1 | -2% |
| COc1ccc(CN2CCOc3c(cc(-c4cccc(OC)n4)cc3OC)C2)c(O)c1 | -2% |
| Cc1nc(C)c(CC(=O)N2CCOc3ccc(CN4CCN(c5ccccn5)CC4)cc3C2)s1 | ? |
| O=C(NCC1CCC2(CCN(Cc3cc4ccccc4o3)CC2)O1)c1ccccc1 (stereo not drawn) | 0% |
| COc1ccc(OC)c(C(=O)N2CCOc3ccc(C(C)(O)CN(C)C)cc3C2)c1 (stereo not drawn) | 0% |
| Cc1oc(-c2ccccc2NC(=O)c2cccnc2)nc1CNC(=O)c1ccc(N(C)C)cc1 | 4% |
| CCC1CN(CCNC(=O)c2cn3cc(C)ccc3n2)Cc2cc(OC)ccc2O1 (stereo not drawn) | 2% |
| COCCNC(=O)c1cn(C2CCN(C3CCCC3)CC2)nn1 | -2% |
| CC(C)C[C@H](NC(=O)[C@H](Cc1ccccc1)NC(=O)CNC(=O)[C@H](CO)NC(=O)[C@@H](N)Cc1ccc(O)cc1)C(=O)N[C@H](C(=O)O)[C@H](C)O | -6%[6.7 µM] |
| COC(=O)c1cccc(C(=O)NCc2nc(-c3cccc(NC(=O)c4ccoc4C)c3)oc2C)c1 | 22µM* |
| COc1ccc(/C=C/C(=O)NCC2Cc3cccc(-c4nc(C)cnc4C)c3O2)cc1OC (stereo not drawn) | -14% |
| Cc1oc(-c2ccccc2NC(=O)c2ccccn2)nc1CNC(=O)c1ccc(Oc2ccccc2)o1 | 3% |
| Cn1c(CCNC(=O)C2CC23CCN(C(=O)C2=CCCC2)CC3)nc2ccccc21 (stereo not drawn) | -1% |
| COC(=O)c1ccc(CN2CCC3(CCC(CNC(=O)c4ccccc4)O3)CC2)cc1 (stereo not drawn) | -11% |
| Oc1ccc(C2=CCNCC2)cc1O | -3% |
| CCN(CC)C1CCN(C(=O)c2cnn(-c3ncc4c(n3)-c3ccccc3CCC4)c2COC)C1 (stereo not drawn) | -1% |
| Cc1cc(-c2cc(F)cc3c2OC(CNC(=O)[C@@H]2CCC(=O)N2)C3)ccc1F (stereo partly drawn) | 0% |
| Cc1cnc(C)c(-c2cccc3c2OC(CNC(=O)C2(c4ccc(Cl)cc4)CC2)C3)n1 (stereo not drawn) | -8% |
| Cc1nn(C)cc1CNc1nc(C)c(-c2ccn(CC3COc4ccccc4O3)n2)s1 (stereo not drawn) | ? |

Compounds listed so far with a furan ring, fused or not, in the order listed:
| Structure | 2A StopGo |
| --- | --- |
| CO[C@H]1[C@H](NC(=O)c2ccco2)c2ccccc2C12CCN(Cc1cnn(-c3ccccc3)c1)CC2 | 17% |
| COc1cc(=O)n2c(c1C(=O)NCc1ccco1)CCN(Cc1cccc(C)n1)CC2 | -3% |
| O=C(NCC1CCC2(CCN(Cc3cc4ccccc4o3)CC2)O1)c1ccccc1 (stereo not drawn) | 0% |
| COC(=O)c1cccc(C(=O)NCc2nc(-c3cccc(NC(=O)c4ccoc4C)c3)oc2C)c1 | 22µM* |
| Cc1oc(-c2ccccc2NC(=O)c2ccccn2)nc1CNC(=O)c1ccc(Oc2ccccc2)o1 | 3% |

Further structures follow:
| Structure | 2A StopGo |
| --- | --- |
| CC(C)(CO)NC(=O)c1cnn(-c2nccc(-c3ccc4c(c3)OCO4)n2)c1C1CC1 | 29% |
| COC(=O)/C=C/c1cccc(N(Cc2ccc(-c3ccc(N(C)C)cc3)cc2)C(=O)C2CCCCC2)c1 | -5% |
| O=C(NCCc1nnc2n1CCN(Cc1ccc3c(c1)CCO3)CC2)c1ccco1 | 1% |
| Cc1cc2c(c(-c3nc4ccccc4s3)c1)OC(CNC(=O)CCc1cccnc1)C2 (stereo not drawn) | 12% |
| O=C(NCC1Cc2cccc(-c3ncccn3)c2O1)C1CCOC1 (stereo not drawn) | -13% |
| CN1CCCC(CNC(=O)c2cnn(-c3nccc(-c4cccs4)n3)c2C2CC2)C1 (stereo not drawn) | -15% |
| CCN(Cc1ccncc1)Cc1ccc2c(c1)CN(C(=O)c1ccccc1)CCO2 | -2% |
| COC(=O)[C@@H]1CCCN1Cc1ccc2c(c1)CN(Cc1coc3ccccc3c1=O)CCO2 | 16% |
| CC1(C)CC(C(=O)N2CCOc3ccc(CN4CCC(Oc5cccnc5)CC4)cc3C2)CCO1 (stereo not drawn) | -10% |
| CC(=O)c1ccc(F)c(-c2cc(C)cc3c2OC(CNC(=O)c2cccnc2)C3)c1 (stereo not drawn) | -3% |
| CC(C)CNC(=O)c1cn(C2CCN(Cc3nc4ccccc4s3)CC2)nn1 | -10% |
| CSCC[C@H](NC(=O)[C@H](Cc1ccccc1)NC[C@@H](NC[C@@H](N)CS)C(C)C)C(=O)O | 5% |
| COCC1CCCN(Cc2ccc3c(c2)CN(C(=O)c2sc(C)nc2C)CCO3)C1 (stereo not drawn) | -2% |
| O=C(NCCc1ccccn1)C1CC12CCN(C(=O)c1ccc(F)cc1Cl)CC2 (stereo not drawn) | 0% |
| Cc1c(C(=O)NCC(C)(C)CN(C)C)cnn1-c1nccc(-c2ccccc2F)n1 | -4% |
| Cn1cnnc1Sc1ccc(CN2CCOc3ccc(C4=CCCCC4)cc3C2)o1 | -14% |
| COC(=O)C1CCN(Cc2ccc3c(c2)CN(C(=O)c2ncc(C)[nH]2)CCO3)CC1 | -12% |
| COC(=O)c1cc(CNC(=O)c2ccc3ccccc3n2)cc(NC(=O)c2cccc(OC)c2)c1 | -1% |
| COC(=O)c1ccccc1-c1cc(C)cc2c1OC(CNC(=O)C1CCCO1)C2 (stereo not drawn) | -2% |
| Oc1cccc2cc(-c3ccncc3)cnc12 | 18% |

Remaining list, next part.
| Structure | 2A StopGo |
| --- | --- |
| NC(N)=NCCC[C@H](NC(=O)[C@@H](N)Cc1ccc(O)cc1)C(=O)O | -5%[6.7 µM] |
| COc1cc(=O)n2c(c1C(=O)NCc1nccs1)CCN(Cc1ccccc1F)CC2 | -8% |
| COc1cc(C(C)C)c2c(c1)S(=O)(=O)N(COc1cc(=O)n3cccc(OCCN4CCCCC4)c3n1)C2=O | ? |
| O=C(NCC1CCC2(CCN(Cc3cccn3-c3ccc(Cl)cn3)CC2)O1)c1ccccc1 (stereo not drawn) | -18% |
| CC(C)N1C[C@@H](NCc2ccccc2O)C[C@H]1C(=O)N1CCN(c2cccc(C(F)(F)F)c2)CC1 | -13% |
| Cc1cc(C(=O)NCC2Cc3cccc(-c4cncnc4)c3O2)c(C)o1 (stereo not drawn) | -8% |
| Cn1ccc(C(=O)NCC2CCC3(CCN(Cc4cc(F)cc(F)c4)CC3)O2)n1 (stereo not drawn) | -1% |
| CC(NC(=O)C1CCOCC1)c1nnc2n1CCN(Cc1ccc(F)cc1)CC2 (stereo not drawn) | -11% |
| O=C(NCC1Cc2cc(-c3cncnc3)cc(Cl)c2O1)c1cccc(Cn2cccn2)c1 (stereo not drawn) | 6% |
| COC(=O)c1cn([C@@H]2C[C@@H](C(=O)N3CCCCCC3)N(Cc3cc4ccccc4s3)C2)nn1 | 2% |
| COc1cc(CN2CCC3(CCC(CNC(=O)c4ccccc4)O3)CC2)cc(OC)c1 (stereo not drawn) | -10% |
| N[C@@H](C(=O)O)[C@@H](CC(=O)O)c1ccc(Cl)cc1 | -7% |
| O=C(NCc1cccnc1)c1cnn(-c2ncc3c(n2)-c2ccccc2CCC3)c1C1CC1 | -14% |
| CN1C/C(=C/c2ccc(B(O)O)cc2)C(=O)/C(=C/c2ccc(B(O)O)cc2)C1 | 28µM* |
| Cc1ncc2c(c1CNC(=O)c1ccccc1F)CCN(C(=O)c1ccccc1-n1cccn1)C2 | -14% |
| Cc1cc(-c2ccnc(-n3ncc(C(=O)NCCc4ccncc4)c3C)n2)c(C)s1 | -20% |
| O=C(NCC1Cc2cc(-c3cnc4ccccc4c3)cc(F)c2O1)c1cnsn1 (stereo not drawn) | 0% |
| O=C(NCCc1nnc2n1CCN(Cc1ccccn1)CC2)c1ccc(F)cc1 | -1% |
| COCCN(C)C(=O)c1cnn(-c2nccc(-c3cc(OC)ccc3OC)n2)c1C | 22% |
| COc1cc(=O)n2c(c1C(=O)NCc1ccco1)CCN(Cc1ccccc1)CC2 | 2% |

Exported with each value named: 4 of the compounds above
Cc1cc(C(=O)NCC2Cc3cccc(-c4cncnc4)c3O2)c(C)o1 (stereo not drawn)
  2A StopGo: -8%

Cn1ccc(C(=O)NCC2CCC3(CCN(Cc4cc(F)cc(F)c4)CC3)O2)n1 (stereo not drawn)
  2A StopGo: -1%

CC(NC(=O)C1CCOCC1)c1nnc2n1CCN(Cc1ccc(F)cc1)CC2 (stereo not drawn)
  2A StopGo: -11%

O=C(NCC1Cc2cc(-c3cncnc3)cc(Cl)c2O1)c1cccc(Cn2cccn2)c1 (stereo not drawn)
  2A StopGo: 6%

Following part
| Structure | 2A StopGo |
| --- | --- |
| COc1cc(=O)n2c(c1C(=O)NC(C)c1ccco1)CCN(Cc1ccnc3ccccc13)CC2 (stereo not drawn) | 4% |
| COC(=O)c1ccc(CN2CCC3(CCC(CNC(=O)c4ccco4)O3)CC2)cc1 (stereo not drawn) | 3% |
| CCS(=O)(=O)Nc1cc(C(=O)N2CCC[C@H]2CO)c2c(c1)nc(-c1ccccc1)n2C | 3% |
| OCCCNCc1cc2cc3c(cc2nc1N1CCN(c2cccc(Cl)c2)CC1)OCO3 | 1% |
| CCCS(=O)(=O)NCc1c(C)ncc2c1CCN(C(=O)/C=C/c1ccccc1)C2 | -9% |
| CC1(C)c2[nH]c3ccccc3c2C[C@H]2C(=O)N(Cc3ccccc3)C(=O)N21 | ? |
| NC(=NCc1ccc(Cl)cc1Cl)NC(=O)c1nc(Cl)c(N)nc1N | -20%&-17% |
| Cc1cc(C)nc(S[C@H]2C[C@@H](C(=O)N3CCN(c4ccccc4F)CC3)N(Cc3ccccc3F)C2)n1 | 12% |
| COC(c1ccc2c(c1)CN(C(=O)Cn1nc(C)c3ccccc3c1=O)CCO2)C1CCCCC1 (stereo not drawn) | -18% |
| COC(=O)c1c(OCc2ccccc2)cc(=O)n2c1CCN(Cc1cccc(C)n1)CC2 | -3% |
| COC[C@H]([C@@H](O)[C@@H](O)C(=O)NCC[C@@H](C)c1nc(/C=C/C[C@H]2OC3(C[C@H](O)[C@H]2C)OC([C@@H](C[C@@H](O)[C@@H](C)[C@@H](O)[C@@H](C)/C=C(C)/C(C)=C/C=C/C(C)=C\C#N)OC)[C@@H](OP(=O)(O)O)C3(C)C)co1)N(C)C (stereo partly drawn) | ? |
| OCC1CCCN(c2nc3cc4c(cc3cc2CNCc2cccc(C(F)(F)F)c2)OCO4)C1 (stereo not drawn) | 0% |
| Cc1cc(C)n2nc(C(=O)NCC3Cc4cccc(-c5ccc(S(C)(=O)=O)cc5)c4O3)cc2n1 (stereo not drawn) | 34%[activator] |
| COc1ccc(O)c(CN2CCC3(CCC(CNC(=O)C4CCCO4)O3)CC2)c1 (stereo not drawn) | -8% |

Not all compounds are listed, so the mix of outcomes need not match the whole.
